# Screening data as filed in PubChem BioAssay.
# AID504770 = growth inhibitors of E. coli YBA685 in a screen for V. cholerae RctB (chromosome II replication) inhibitors; E. coli YBA685 rctB-dependent plasmid, OD600 growth, 3 h; hits give low values; z-score (test concentration not listed); 130,000 tested, 0.27% active;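 active = z-score under -2 on both plates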;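 note: wells of about 30 µL received 100 nL stock; score is relative to mean and SD of the test wells; the first replicate is given; strong numbers were not always called active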
# Ba CapD inh = CapD enzyme inhibition. purified CapD enzyme, fluorescence intensity read-out; hits give low values; some hits fall short of the stated cut. z-score (concentration not given with the values). 140,000 tested, 0.23% active. AID 492967;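 active = z-score under -4 in either of two replicates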;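 note: stock transfer was 100 nL into about 40 µL; score is relative to mean and spread of the plate; one replicate is shown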
# The depositor's hits bear a star; / = not tested or not shown; & = joins results of further samples.
# Value order: Ba CapD inh, AID504770
CC(C)S(=O)(=O)c1csc(C(=O)OCC(=O)c2ccc(Cl)cc2)c1N
 : 6.5, 0.65
CCN(CC)C(=O)C1CC(=O)OC1(C)C (stereo not drawn)
 : -0.29, 2.4
O=C1NC(C(=O)O)=CC(c2ccccc2)N1 (stereo not drawn)
 : /, 1.2
OC(CN1CCCCCC1)Cn1c2ccccc2c2ccccc21 (stereo not drawn)
 : 14, /
Cc1cc(C)n(C2=NCCN2)n1
 : 0.82, 2.5
Cc1ccc(N(C)NC=C(C#N)C#N)nn1
 : 3.7, 0.35
CCn1c(C(=O)N2CCC(C(=O)O)CC2)cc2sccc21
 : -0.31, -0.4
O=C(CSc1nnc(NC(=O)c2ccc(S(=O)(=O)N3CCOCC3)cc2)s1)Nc1nccs1
 : -0.45, /
Cc1c(Cl)cccc1NCc1nc2ccccc2s1
 : -0.48, 0.95
O=C(NCC1COc2ccccc2O1)C1COc2ccccc2O1 (stereo not drawn)
 : 0.22, -0.05
O=C(O)CCc1c(-c2ccccc2)cc2ccccn12
 : 68, -0.6
O=C(O)c1cccc(Nc2nc(Nc3ccccc3)nc(N3CCCC3)n2)c1
 : 1.2, 0.15
CN1CCN(/N=C/c2ccc(Cl)cc2)CC1
 : -0.89, 1.6
O=C1CSC(=Nc2cccc(C(F)(F)F)c2)N1
 : -0.19&0.42, 0.75&0.35
COc1ccc(CN(C)C(=O)c2ccccc2OC)cc1
 : -1.3, -0.35
O=C(NCc1csc2ccccc12)c1ccco1
 : 0.12, 0.45
O=C(OCCN1CCCC1=O)c1cccs1
 : -0.11, -0.1
CC(C)C(NC(=O)c1ccccc1Cl)C(=O)NC1CCCCCC1 (stereo not drawn)
 : -0.11, 0.2
Brc1ccc(CSc2nccn2-c2cccnc2)cc1
 : -0.39, -0.45
O=C(N/N=C/c1ccc(N2CCOCC2)cc1)c1ccc(O)cc1
 : /, 0.85
CCOC(=O)COc1cccc(Cl)c1
 : 0.32, -1.4
O=C(COC(=O)c1ccc2ccccc2n1)c1ccc2[nH]c(=O)[nH]c2c1
 : /, -0.7
CN(C)c1cc(N2CCNCC2)nc(N(C)C)c1C#N
 : 0.54, 0.25
CCOC(=O)COc1ccccc1C(=O)O
 : -0.24, 0
O=C(O)C1CCCN(C(=O)c2ccc(F)cc2)C1 (stereo not drawn)
 : /, -0.4
CN(C)c1ccc(/C=C2/SC(=S)N(CC(=O)O)C2=O)cc1
 : -1.6, /
COc1ccc(NC(=O)CCN2CCN(C3c4ccccc4-c4ccccc43)CC2)cc1
 : 0.095, -0.55
CC1CC(C)CN(C(=O)CSc2nncn2-c2cccc(Cl)c2)C1 (stereo not drawn)
 : /, -0.8
O=C(CC(c1ccccc1)c1ccccc1)NCc1nc(-c2ccccc2)no1
 : 0.25, -0.15
CC(=O)OCCCN1/C(=C\C=C\c2n(CCCOC(C)=O)c3cc(Cl)c(Cl)cc3[n+]2C)N(C)c2cc(Cl)c(Cl)cc21
 : 0.34, /
O=C(O)CCc1ccc(-c2ccccc2F)o1
 : /, -1.1
Cc1cc(C)nc(NNC(=O)c2ccccc2)n1
 : /, 1
CCCc1[nH]n(-c2ccc(F)cc2)c(=O)c1C=NCCN1CCN(C(=S)NCC)CC1
 : -0.62, /
COc1ccccc1/C=C(\C#N)c1ccc(-n2cccc2)cc1
 : -0.16, 0.95
CCN1CCN(c2nc(-c3ccc(C(C)(C)C)cc3)nc3ccccc23)CC1
 : -0.42, -0.2
CCOC(=O)C(=O)N1c2cc(C)c(C)cc2-c2c(ssc2=S)C1(C)C
 : 0.035, /
O=C(NCc1ccco1)c1ccc2c(=O)n(C3CCCCC3)c(SCc3cc(F)ccc3F)nc2c1
 : 0.38, 0.4
Cc1ccc2c(=O)cc(-c3cccc(F)c3)oc2c1
 : /, 1.6
CCOC(=O)N1CCN(C(=O)c2ccc(-n3c(=S)[nH]c4ccccc4c3=O)cc2)CC1
 : 1.2, 1.2
COC(=O)C1=C(C)NC(SCC(=O)Nc2ccccc2)=C(C#N)C1c1ccccc1F (stereo not drawn)
 : 26, -0.1
COc1ccc(-c2oc(NC(=O)Cc3ccc(OC)c(OC)c3)c(C#N)c2-c2ccc(OC)cc2)cc1
 : 9.3, 1.4
NS(=O)(=O)c1ccc(C(=O)N/N=C/c2ccoc2)cc1
 : -0.86, /
CC(C)CCNC(=O)c1ccc2c(c1)C(=O)c1ccccc1-2
 : 0.6, 0.4
CC(C)(C)C1(O)CC(C(F)(F)F)=NN1C(=O)c1cccc(Cl)c1 (stereo not drawn)
 : -0.11, /
Cn1c(/C(C#N)=C(\O)CN2C(=O)CCC2=O)nc2ccccc21
 : /, -0.55
CCOc1ccc2cc(-c3csc(N)n3)c(=O)oc2c1
 : /, -1.4
CC(C)(C)c1ccc(-c2cc(=O)[nH]c(=O)o2)cc1
 : -0.33, 1.4
CC1c2nc3ccccc3n2C(CC(=O)NCc2ccc(Cl)cc2)C(=O)N1Cc1ccccc1 (stereo not drawn)
 : 0.53, 0.1
CCc1nc2sc3c(NCCc4ccccc4)ncnc3c2c2c1CCCC2
 : -0.68, -0.45
CC(C)(C)c1ccc(-c2nnc(SCc3ccc(Cl)cc3)o2)cc1
 : 0.29, /
COC(=O)[C@@H]1CCN[C@@H]1c1c(Cl)cccc1Cl
 : /, 0
CC(CCc1ccccc1)NC(=O)c1ccco1 (stereo not drawn)
 : /, -0.5
CC(C(=O)C(C#N)c1nc2ccccc2n1C)N1C(=O)c2ccccc2C1=O (stereo not drawn)
 : /, -0.5
COc1cc(/C=C\C(=O)NCCc2cc3ccc(C)cc3[nH]c2=O)cc(OC)c1OC
 : 4.3, 0.25
Cc1cccc(NC(=O)c2ccc3ccccc3c2)c1C
 : 72, 0.5
O=c1[nH]c(=S)[nH]c2scc(-c3ccc(Br)cc3)c12
 : -0.035, /
CC1(C)NN(CCO)C(=Nc2ccccc2)S1
 : /, 1.3
CC(C)(C)NC(=O)Cc1csc2nc(-c3ccccc3)cn12
 : 0.035, -1.1
COc1ccc(CCn2cc3c(c2-c2ccccc2)c(=O)n(C)c(=O)n3C)cc1OC
 : 0.53, 0.1
COc1ccc(CN=C2SCC(=O)N2c2ccccc2)cc1Cl
 : 0.15, -0.45

# (listing goes on)
# Value order: Ba CapD inh, AID504770
CCN(C(=O)CCc1c(C)[nH]c(=O)c(C#N)c1C)c1nc2c(C)cccc2s1
 : /, 0
CCCn1cnc2c(NS(=O)(=O)c3ccc(OC)cc3)c(C)c(C)cc21
 : -0.3, /
COC(=O)c1ccc(/C=[N+](/[O-])C2(C)CCCCC2=O)cc1 (stereo not drawn)
 : -0.44, 0.05
Cc1cc(C)c(S(=O)(=O)Nc2nnc(C(F)(F)F)s2)c(C)c1
 : /, -0.05
CCN(C(=O)c1ccc(Cl)cc1Cl)c1nnc(-c2ccncc2)s1
 : 1.8, 0.7
O=C(OCC(=O)N1CCCC1)c1ccc(Cl)nc1
 : /, -0.6
COc1ccc(-n2c(SCC(=O)c3ccc(O)c(O)c3)nc3ccsc3c2=O)cc1
 : -0.74, -0.7
COc1ccc(NC(=O)CC2CCCC2)c(S(=O)(=O)N2CCCCC2)c1
 : /, -1.1
O=C(CN(c1ccccc1)S(=O)(=O)c1ccccc1)NCc1ccccc1
 : -0.28, /
O=C(O)CNC(=O)C12CC3CC(CC(C3)C1)C2
 : 0.08, -0.25
O=C(NNC(=O)c1snnc1-c1ccccc1)OCCCCCc1ccccc1
 : 0.075, /
CC(NC(=O)CSc1nnc(COc2ccccc2)o1)c1ccccc1 (stereo not drawn)
 : -0.3, -0.4
O=C(Nc1ccccc1)C1=C(N2CCOCC2)/C(=C\c2cccnc2)CC1
 : /, 1.1
CSc1ccc(S(=O)(=O)Nc2ccc3c(c2)NC(=O)CC3)cc1
 : /, -0.4
CCCCN(C(C)=O)c1c(N)n(CCC)c(=O)[nH]c1=O
 : /, -0.2
CCC1Sc2cc(S(=O)(=O)Nc3cccc(Cl)c3)ccc2NC1=O (stereo not drawn)
 : -0.92, -0.15
COc1ccc(C=Nc2ccc(Br)cc2)cc1
 : -0.4, -0.55
CCOC(=O)C1CCN(c2cc(NCC(=O)O)c3c4c(onc24)-c2ccccc2C3=O)CC1
 : -0.67, 1.8
N#Cc1ccc(CSc2ccc3c(c2)OCCO3)cc1
 : /, 1.1
O=C(/C=C/c1cn(-c2ccccc2)nc1-c1ccc(F)cc1)NCc1ccccn1
 : 1.2, 1.2
COc1ccc2cc(C(=O)CBr)ccc2c1
 : 29, 1.7
C1=Cc2ccccc2Nc2ccccc21
 : -0.33, -0.25
Cn1c(Sc2nnnn2-c2ccccc2)nnc1C(F)(F)F
 : /, 1.1
O=C(CCc1nc2ccccc2c(=O)[nH]1)OCc1ccccc1
 : /, 1.5
O=C(O)c1cc(-n2c(/C=C/c3ccc([N+](=O)[O-])cc3)nc3ccccc3c2=O)ccc1Cl
 : -0.8, /
O=c1c2c(-c3ccccc3)ccnc2[nH]n1-c1ccccc1
 : -0.71, 0.55
CCCc1nc2ccccc2n1CC(=O)N1CCc2ccccc21
 : 0.9, 0.7
C=CCN(C(=O)Cc1ccc(OC)cc1)c1nnc(-c2ccc(Cl)cc2)s1
 : -0.49, -1.6
CCN(CC)C(=O)Cn1c(=O)n(-c2ccc(F)cc2)c(=O)c2oc3ccccc3c21
 : /, -0.2
Cc1cc(C2C(C#N)=C(N)N(c3ccccc3C(F)(F)F)C3=C2C(=O)CCC3)c(C)s1 (stereo not drawn)
 : 0.15, /
O=C(N/N=C/Cc1ccccc1)c1ccccc1O
 : 0.46, -0.05
COc1cc(OC)nc(CSCC(=O)NCCN2CCOCC2)n1
 : -0.48, /
CCCCCn1c2ccccc2c2nc3cc(F)ccc3nc21
 : 11, /
O=C(OCC(=O)N1CCc2ccccc21)C1CC2C=CC1C2 (stereo not drawn)
 : 0.73, 0.15
COC(=O)c1cc(C(=O)OC)cc(N2C(=O)CSC2c2ccccc2Br)c1 (stereo not drawn)
 : -0.28, /
CCC(=O)N=c1sc2cc(Br)ccc2n1CCOC
 : /, 0.85
CCc1ccccc1-n1c(SCC(=O)Nc2ccc(Br)cc2)nc2n[nH]c(C)c2c1=N
 : -1.1, /
CN1C(=O)N(C)C(=O)C(CCc2ccncc2)(C2(C#N)CCCCC2)C1=O
 : 0.025, -0.7
COc1ccc(CN2CCN(C(=O)c3c(C)nn(Cc4ccccc4)c3C)CC2)cc1F
 : /, -0.3
Cn1c(P(C)(=O)O)nc2ccccc21
 : 8.6, 0.15
COc1cc(/C=C2\CCc3ccccc3C2=O)cc(OC)c1
 : -0.83, /
O=C1C(=O)N(c2ccc(Br)cc2)C(c2ccc(Br)cc2)/C1=C(/O)c1ccc(Br)cc1 (stereo not drawn)
 : -0.21, /
O=C(Nc1ccccc1N1CCOCC1)C1CCN(c2nccc(C(F)(F)F)n2)CC1
 : 1.8, -0.3
COc1ccccc1NC(=O)CCc1c(C)[nH]c(=O)c(C#N)c1C
 : 4.8, -0.55
CC(=O)c1ccc(S(=O)(=O)N2CCN(c3cc(Cl)ccc3C)CC2)cc1
 : -0.29, /
O=C(O)C12CC3CC(C1)CC(n1ncc(NCc4ccc(F)cc4)c(Cl)c1=O)(C3)C2
 : 0.17, 0
O=c1[nH]c(=O)n(C2C[C@@H](O)[C@@H](CO)O2)cc1F (stereo partly drawn)
 : -2, -1.8
C#C[C@]1(O)CC[C@H]2[C@@H]3CCC4=C(CCC(=O)C4)[C@H]3CC[C@@]21C
 : 1.5, /
CCOC(=O)c1c(NC(=O)Cn2nc([N+](=O)[O-])c(Br)c2C)sc(C)c1C
 : -0.18, /
Cc1[nH]n(-c2cccc(Cl)c2)c(=O)c1C1CC(=O)N(c2ccccc2)C1=O (stereo not drawn)
 : 0.6, -0.05
O=C(CN1C(=O)c2ccccc2C1=O)NC1=NCCS1
 : 0.56, -0.35
COc1ccc(NC(=O)CNc2ccc(NC(C)=O)cc2)c(OC)c1
 : /, 0.1
O=c1[nH]c2cc(C(F)(F)F)ccc2n(CCNc2ncc(C(F)(F)F)cc2Cl)c1=O
 : 0.14, 1.8
CCOc1ccc2oc(=O)cc(CN3CCOCC3)c2c1
 : 2.7, -0.55
O=c1cc(N2CCCCC2)c(-c2ccccc2)nn1Cc1ccc(Cl)cc1
 : -0.75, /
CCCCC(=O)c1ccc(O)cc1
 : -0.18, 0.35
CNCC(C)c1ccccc1 (stereo not drawn)
 : /, 0.5
CC(C)CCOc1ccc(C(=O)C(CN2CCOCC2)c2ccccc2)cc1 (stereo not drawn)
 : -0.055, -0.45
O=C(CCCn1c(SCC(=O)Nc2cccc(C(F)(F)F)c2)nc2ccccc2c1=O)NCC1CCCO1 (stereo not drawn)
 : -0.26, /
CN(C)c1ccc(/C=C2\CCC(=C3SCCCS3)C2=O)cc1
 : /, -0.15
COc1ccc(-c2oc3ncn(Cc4ccco4)c(=N)c3c2-c2ccc(OC)cc2)cc1
 : 1.3, 0.35
CCC1(OC)CC(c2ccccc2)NC(=S)N1 (stereo not drawn)
 : -0.33, /

# Among those listed so far, these contain a thiophene ring, fused or not:
# Value order: Ba CapD inh, AID504770
CC(C)S(=O)(=O)c1csc(C(=O)OCC(=O)c2ccc(Cl)cc2)c1N
 : 6.5, 0.65
CCn1c(C(=O)N2CCC(C(=O)O)CC2)cc2sccc21
 : -0.31, -0.4
O=C(NCc1csc2ccccc12)c1ccco1
 : 0.12, 0.45
O=C(OCCN1CCCC1=O)c1cccs1
 : -0.11, -0.1
CCc1nc2sc3c(NCCc4ccccc4)ncnc3c2c2c1CCCC2
 : -0.68, -0.45
O=c1[nH]c(=S)[nH]c2scc(-c3ccc(Br)cc3)c12
 : -0.035, /
COc1ccc(-n2c(SCC(=O)c3ccc(O)c(O)c3)nc3ccsc3c2=O)cc1
 : -0.74, -0.7
Cc1cc(C2C(C#N)=C(N)N(c3ccccc3C(F)(F)F)C3=C2C(=O)CCC3)c(C)s1 (stereo not drawn)
 : 0.15, /
CCOC(=O)c1c(NC(=O)Cn2nc([N+](=O)[O-])c(Br)c2C)sc(C)c1C
 : -0.18, /

# Random draw from the library, and some 0.37% of all compounds hit somewhere here.
